From PubChem
D2 ag = Beta-Arrestin HTS for Positive Allosteric Modulators of the Human D2 Dopamine Receptor: Agonists; activation, % (concentration not given with the values); AID 624465, 2012; D(2) dopamine receptor (Homo sapiens), P14416; 360,000 compounds, 0.084% hits; DiscoveRx PathHunter D2 beta-arrestin, luminescence, 90 min; 100% = 57 uM dopamine signal; in the data active = activation above about 40%; inconclusive = about 15% to 40%; inactive = below about 15%; note: the text of the record calls up to 30% inactive
Target sequence (P14416 whole entry, looked up): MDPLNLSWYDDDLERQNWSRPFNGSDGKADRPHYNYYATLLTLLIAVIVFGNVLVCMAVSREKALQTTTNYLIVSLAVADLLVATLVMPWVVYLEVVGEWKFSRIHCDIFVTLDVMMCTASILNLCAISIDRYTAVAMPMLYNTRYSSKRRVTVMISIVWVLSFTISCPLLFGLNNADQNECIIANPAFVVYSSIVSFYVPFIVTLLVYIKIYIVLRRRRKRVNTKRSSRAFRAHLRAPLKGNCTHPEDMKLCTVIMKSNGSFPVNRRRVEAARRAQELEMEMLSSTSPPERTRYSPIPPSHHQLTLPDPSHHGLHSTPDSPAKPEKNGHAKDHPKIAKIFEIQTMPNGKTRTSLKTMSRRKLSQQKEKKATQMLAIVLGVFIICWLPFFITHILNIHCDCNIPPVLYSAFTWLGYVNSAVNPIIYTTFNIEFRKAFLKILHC
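Agonist mode: compounds alone added to overnight-plated D2 PathHunter cells for 90 min at 37 C, with 57 uM final dopamine (EC100) defining full response. Beta-arrestin recruitment detected by chemiluminescent reagent, read after 1 h at ambient temperature.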
D2 potentiator = Beta-Arrestin HTS for Positive Allosteric Modulators of the Human D2 Dopamine Receptor: Potentiators. D(2) dopamine receptor (Homo sapiens), P14416. DiscoveRx D2 beta-arrestin cells, luminescence, 90 min; 100% = 57 uM dopamine signal. potentiation, % (concentration not given with the values). 360,000 compounds, 0.23% hits; active = potentiation of 50% or more; inconclusive = 30% to 50%; inactive = 30% or less;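 note: tested on top of an EC20 dose of dopamine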
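PathHunter D2 cells, attached overnight at 37 deg C, received compound in DMSO plus dopamine at EC20 (50 nM final) for 90 min at 37 deg C. Beta-arrestin recruitment was read as luminescence after 1 h with detection reagent at ambient temperature.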
PINK1 modulator = A Quantitative High throughput Screen to Identify Chemical Modulators of PINK1 Expression | AID 624263, 2012 | PINK1 immunofluorescence, high-content cytometry, 24 h | 410,000 compounds, 0.2% hits | Potency, µM (titrated, usually from 76.6 µM), inactives show top-dose activation (PINK1 increase), hits mostly activators; active = well fitted activation curve with a large enough effect; inconclusive = small, poorly fitted or top-dose-only effect; inactive = flat fitted curve, though single readings scatter; cell line not stated here;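 note: potency is the fitted concentration of half-maximal effect; % of control where 0% means no effect; nearly all actives have a fitted effect of over 65% in size; a mitochondrial uncoupler was the plate control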
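A stable cell line was treated with compounds at 5 concentrations for 24 hours, with CCCP as control. PINK1 levels and mitochondrial localization were measured by immunofluorescence with mitochondrial, cell and nuclear markers after fixation, read by laser-scanning cytometry.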
TRPV1 potentiator = HTS Assay for Compounds that Act as Potentiators of the Vanilloid Receptor 1. Transient receptor potential cation channel subfamily V member 1 (Homo sapiens), Q8NER1. TRPV1-expressing cells, Fluo-8 calcium influx, capsaicin EC20 potentiation; host cell line not named in the record; control for the full effect not named in the record. potentiation, % at 8.33 µM. 320,000 compounds, 0.02% hits; active means potentiation above 80%; inconclusive means 30% to 80%; inactive means below 30%; note: 0% is about no effect
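Cells expressing TRPV1 were dye-loaded with Fluo-8 and read kinetically: 10 s baseline, 3 min after compound (agonist portion), then 2 min after EC20 capsaicin (allosteric enhancer portion). Calcium-bound dye fluorescence at 480/520 nm.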
CtBP-E1A blk = qHTS Assay for Inhibitors of the CtBP/E1A Interaction; CtBP / adenovirus E1A interaction (AlphaScreen); AlphaScreen GST-E1A/His-CtBP binding, 1536-well; hits give low values; control for the full effect not named in the record; activity change, % (concentration not given with the values); 340,000 compounds, 0.49% hits; AID 651724, 2012; in the data active means activity change below about -65%; inconclusive means about -30% to -65%; inactive means above about -30%; note: % is set by controls: 0 for no effect and ±100 for the full control effect
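Homogeneous bead-based format: GST-tagged E1A captured on glutathione donor beads, His-tagged CtBP on nickel acceptor beads; compounds precede bead addition by 2 h at 37 °C.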
Sfp PPTase inh = qHTS Assay for Inhibitors of Bacillus subtilis Sfp phosphopantetheinyl transferase (PPTase) | Biochemical Sfp PPTase activity, qHTS | Potency, µM, for the others: max response, negative = inhibition, usual class: inhibitors | 310,000 compounds, 3.5% hits | AID 1490, 2009; active = well fitted inhibition curve with a large enough effect; inconclusive = small, poorly fitted or top-dose-only effect, or another doubt; inactive = no such curve, though single readings can be large or run the other way;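 note: the enzyme is Sfp with the accession as filed and its product quenches rhodamine fluorescence; potency is the fitted concentration of half-maximal effect; 0% = enzyme reaction without inhibitor and -100% = no enzyme wells; top concentration of the series not given in the record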
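Fluorescence-quenching assay with 15 nM Sfp, 5 uM rhodamine-CoA and 12.5 uM BHQ-2-labelled ybbR peptide in pH 7.6 Hepes/MgCl2 buffer. Enzyme was pre-incubated with compound for 15 min at room temperature. Rate was taken from the 30-min fluorescence change (525/598 nm).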
Six1-Eya2 inh = qHTS Assay for Inhibitors of the Six1/Eya2 Interaction; Homeobox protein SIX1 (Homo sapiens) + Protein phosphatase EYA2 (Homo sapiens), …; AlphaScreen GST-Six1/His-Eya2 binding, biochemical; hits give low values; control for the full effect not named in the record; activity change, % (no concentration beside the values); 360,000 compounds, 0.56% hits; in the data active = activity change below about -65%; inconclusive = about -30% to -65%; inactive = above about -30%; note: % is set by controls: 0 for no effect and ±100 for the full control effect
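AlphaScreen with GST-Six1 and His-Eya2 (5X mix: 250 nM and 500 nM), glutathione donor and nickel acceptor beads; buffer 50 mM Tris pH 8.0, 300 mM NaCl, 1 mM TCEP; 1 h at 37 C in the dark.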
An asterisk follows results filed as active; ? = inconclusive; nt = not tested or not shown; & = joins results of further samples; [ ] = remark or other dose.

SMILES	D2 ag	D2 potentiator	PINK1 modulator	TRPV1 potentiator	CtBP-E1A blk	Sfp PPTase inh	Six1-Eya2 inh
CCCCN1C(=O)C(CC(=O)NCCCCc2ccccc2)CC(C(=O)N2CCOCC2)=C1C (stereo unspecified)	-2.3	4	-0.2%	nt	1	nt	-3
Cc1ccc(C(=O)NNC(=S)NC(=O)COc2ccccc2)cc1	1.1	-13	nt	-2	-11	56µM*	-11
CCOc1ccc(/C=N/NC(=O)C2CCCC2)c(OCC)c1	2.1	-2	2.7%	0	2	12%	8
CCCN(CC(=O)Nc1ccccc1C)C(=O)c1ccc(-c2ccc(C(C)=O)cc2)o1	-2.3	14	2.4%	12	-7	nt	0
Clc1ss/c(=N\c2ccccn2)c1Cl	-3.1	-1	11%	-3	-86*	35µM*	-92*
FC(F)(F)c1cc(N2CCOCC2)nc(-c2ccccc2)n1	0.8	-3	-1.5%	-11	15	22%	2
O=C(O)CC(C(=O)N(c1ccccc1)c1ccccc1)N1CCOCC1 (stereo unspecified)	-2.5	-11	-1.4%	14	2	5%	3
COc1ccccc1CNC(=O)c1cnccn1	-3.1	-4	0.7%[38.3 µM]	3	-16	10%	-5
CC(=O)c1cccc(OCc2cc(C(=O)N(C)CCc3cnn(C)c3)no2)c1	-2.1	-9	0.3%	-18	-6	5%	9
NC(=S)N/N=C/c1coc2ccc(O)cc2c1=O	1.9	-6	2.1%	nt	nt	1.6µM*	?
Cc1ccc2oc(-c3cccc(NC(=O)c4ccc(Br)o4)c3)nc2c1	-1.3	-1	5.4%	2	-21	-18%	9
CC(C)(O)C#Cc1ccc(CN2CCCC(CNC(=O)c3ccco3)C2)cc1 (stereo unspecified)	-5.4	-39	-0.3%	?	0	6%	-1
Nc1ccc(O)c2c(=O)cc(-c3ccccc3Cl)oc12	-0.4	-12	0.4%	3	-17	4%&-5%	-11
Cc1cc(C)c2nc(-c3cccc(Cl)c3)c(C)c(C(=O)N3CCOCC3)c2c1	3.0	7	0.2%	-28	-12	-11%	0
CC1=CC(=O)[C@H]2C(C)(C)CCC[C@]2(C)[C@@]1(O)CO	-6.3	-23	0.0%	16	2	11%	5
N/C(Cc1ccc([N+](=O)[O-])cc1)=N\OC(=O)Cc1ccccc1	15	-1	0.5%	-2	nt	10%	-1
Cc1ccc(NC(=O)NCc2nc3ccccc3n2C)cc1	-2.0	-1	-0.9%	13	-14	10%	4
CCC(C)c1nc2c(c(N3CCC3=O)c1-c1ccccc1)CCCC2 (stereo unspecified)	-0.8	-10	5.3%	nt	4	nt	-3
O=C(Nc1ccc2oc(-c3ccccc3)nc2c1)c1cc(-n2cnnc2)ccc1Cl	4.1	0	27%	-17	nt	-12%	-5
COC(=O)C1=NN[C@H](C(=O)OC(C)(C)C)[C@H]1c1ccccc1	-1.6	-17	0.6%	4	0	27%	0
COc1ccc(N2CC(C(=O)NCCc3ccc(Cl)cc3)CC2=O)cc1 (stereo unspecified)	-6.7	-1	3.0%	-33	-2	12%	0
O=C(Nc1cccc2ccccc12)c1ccc2sc([C@@H]3O[C@H](CO)[C@@H](O)[C@H]3O)nc2c1	2.3	4	0.6%	nt	-2	nt	-3
O=C(Nc1ccccc1)N(C1=NCCC1)c1ccc(OC(F)F)cc1	-1.5	-13	0.2%	-3	7	4%	0
CC(OC(=O)c1ccc2c(c1)NC(=O)CS2)C(=O)c1ccc(F)cc1 (stereo unspecified)	4.1	1	-0.8%	nt	-4	nt	1
S=c1[nH]nc(-c2ccco2)n1/N=C/c1ccc(Cl)cc1	-2.4	-11	-1.7%	0	-3	-20%	-18
(more compounds)
SMILES	D2 ag	D2 potentiator	PINK1 modulator	TRPV1 potentiator	CtBP-E1A blk	Sfp PPTase inh	Six1-Eya2 inh
CCN(C(=O)CSc1nnc(Nc2ccccc2)s1)C1CCS(=O)(=O)C1 (stereo unspecified)	-1.0	-1	-0.1%	3	-7	-11%	0
COCCCNC1=C(C#N)C(=O)NC(c2cccc([N+](=O)[O-])c2)S1 (stereo unspecified)	-2.1	-14	-0.8%	nt	0	nt	11
COc1cccc(/C=N/NC(=O)CN(C2=NS(=O)(=O)c3ccccc32)c2ccccc2)c1	0.1	-9	-1.5%	-2	0	-1%	-7
CCC(c1nnnn1CCOC)N(Cc1cc2c(C)cc(C)cc2[nH]c1=O)CC1CCCO1 (stereo unspecified)	0.4	-14	?	-17	-11	-10%	-2
Cc1ccc(Nc2nc3ccccc3n3cnnc23)cc1C	3.1	1	12%	8	1	8%	1
O=C(c1c(F)cccc1F)N1CCCC1	4.3	27	2.3%	6	nt	9%	0
COc1ccc(C(CC(=O)O)NC(=O)COc2cc(C)ccc2C)cc1OC (stereo unspecified)	-5.0	3	1.1%	6	-4	?	2
CC(=O)Nc1cccc(NC(=O)CSc2nc(=O)n3cccc(C)c3n2)c1	-7.2	-16	2.3%	-5	-6	nt	-12
C[n+]1cn(Cc2cc(Cl)ccc2OC(F)F)c2ccccc21	2.7	-7	-0.1%	0	-4	14%	1
Cc1c(-c2ccccc2)sc(Br)c1C(=O)N1CCOCC1	-3.7	-10	-2.0%	-10	-2	5%	-1
O=S(=O)(Nc1nc2ccccc2nc1NCc1ccco1)c1cccs1	-0.2	11	-2.5%	-14	-9	-23%	0
O=C(Oc1ccc(C(=S)N2CCOCC2)cc1)c1cccc([N+](=O)[O-])c1	-2.3	-8	-0.9%	11	nt	?	?
O=C(COc1cc(F)ccc1[N+](=O)[O-])Nc1cccc(Br)c1	0.6	-22	0.5%	8	2	6%	-2
N#Cc1ccccc1/C=N/Nc1nc(-c2ccccc2)c2cc(Br)ccc2n1	-1.1	-10	2.0%	4	-1	-9%	-3
COc1ccnc(CSC(N)=Nc2ccc(F)cc2)c1	-7.4	-19	1.1%	0	?	22µM*	?
Clc1ccc(OCc2cc(-c3ccccc3)no2)c(Cl)c1	-0.2	-17	2.6%	0	8	-12%	44
Cc1ccc(S(=O)(=O)N2CCC(NC(=O)c3ccccc3)CC2)cc1	-7.0	-7	8.4%	11	1	8%	8
O=C(N/C(=C/c1cccs1)C(=O)N1CCOCC1)c1ccccc1	-2.4	9	1.7%	17	-13	-13%	13
CC(=O)c1cccc(NC(=O)c2cc(-c3ccc(F)cc3)on2)c1	-1.5	-2	4.4%[38.3 µM]	14	0	7%	-2
Cc1cc(C)cc(N(CC(=O)NC(C)C)C(=O)CCC(=O)Nc2ccccn2)c1	-4.4	-1	4.7%	-11	-6	16%	11
CC(=O)N/N=C(\N)c1nonc1N	-4.7	-9	-1.0%	-16	-7	89µM*	3
CCCN(C(=O)C(C)Oc1cccc(Cl)c1)c1c(N)n(Cc2ccccc2)c(=O)[nH]c1=O (stereo unspecified)	5.2	1	-0.1%	0	0	2%	-8
COc1ccccc1C(c1nnnn1C(C)(C)C)N1CCN(Cc2ccncc2)CC1 (stereo unspecified)	-1.6	-2	-1.8%	20	3	-9%	8
COc1ccccc1-n1nc(C)c(-c2ccccc2)c1N	-1.8	8	2.9%	-7	4	25%	0
COc1ccc(N2CCN(C(=O)CN3CCN(c4nc(-c5ccc(F)cc5)cs4)CC3)CC2)cc1	-3.4	-4	-1.0%	28	-2	13%	1
Next part:
SMILES	D2 ag	D2 potentiator	PINK1 modulator	TRPV1 potentiator	CtBP-E1A blk	Sfp PPTase inh	Six1-Eya2 inh
Cc1cc(Br)cn2c(Cc3ccccc3C(F)(F)F)c(C3CCCCC3)nc12	-4.7	-5	1.8%	nt	-7	nt	12
CCN1CCN(C(c2cccs2)C(C)NS(=O)(=O)c2ccc(F)cc2)CC1 (stereo unspecified)	0.2	-12	-0.7%	3	8	9%	1
COc1cccc(NC(=O)CCNS(=O)(=O)c2ccc3c(c2)CC(C)N3C(=O)C2CC2)c1 (stereo unspecified)	3.0	-8	-0.5%	12	-15	16%	-7
O=C(COc1ccc2oc(-c3ccco3)cc(=O)c2c1)N1CCCCC1	-1.6	3	1.2%	0	-10	17%	-9
N#CCC(=N)N1CCN(c2cccc(Cl)c2)CC1	0.4	-22	4.2%	1	-6	-8%	-13
CC(C)(C)NC(=O)COC(=O)c1cc(F)c(F)cc1Cl	-2.6	21	0.6%	-11	4	7%	3
O=C(CCCN1C(=O)C2CC=CCC2C1=O)Nc1ccccc1F (stereo unspecified)	4.4	-2	0.8%	11	5	20%	11
COc1ccc(C(=O)NCCNC(=O)c2ccc(OC)cc2)cc1	-0.2	-1	0.9%	nt	-3	nt	-1
Brc1cccc(/C=N\n2cnnc2)c1	-1.4	-1	-14%[38.3 µM]	-17	2	13%	1
O=C(Nc1ccc(Cc2ccc(NC(=O)C3CC3)c(O)c2)cc1O)C1CC1	3.2	?	1.0%	?	4	4%	-1
O=C1CCC(=O)N(O)CCCCCNC(=O)CCC(=O)N(O)CCCCNC(=O)CCC(=O)N(O)CCCCCN1	2.7	-2	2.3%	-11	0	?	5
O=c1[nH]cnc2c1c(-c1ccccc1)cn2-c1ccc(F)cc1	-7.5	-17	-1.3%	2	-19	1%	-15
CCC(C(=O)N1CCOCC1)n1nc(C)n2c(cc3cc(C)ccc32)c1=O (stereo unspecified)	0.7	-12	-0.6%	-18	-11	7%	-2
